# Compound activity deposited in PubChem BioAssay by National Center for Advancing Translational Sciences (NCATS).
# Cruzain Triton = inhibitors of Trypanosoma cruzi cruzain with detergent. P25779. purified cruzain, Z-FR-AMC fluorescence, 0.01% Triton. Potency, µM, without a hit: max response, negative = inhibition, actives largely listed as inhibitors. actives 0.43% (n = 200,000);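 also: plate controls were neutral wells for no effect and buffer without enzyme for full effect; nearly all actives have a fitted effect of over 40% in size; top concentration of the series not given in the record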
# Target sequence (P25779 123-467 limits assumed): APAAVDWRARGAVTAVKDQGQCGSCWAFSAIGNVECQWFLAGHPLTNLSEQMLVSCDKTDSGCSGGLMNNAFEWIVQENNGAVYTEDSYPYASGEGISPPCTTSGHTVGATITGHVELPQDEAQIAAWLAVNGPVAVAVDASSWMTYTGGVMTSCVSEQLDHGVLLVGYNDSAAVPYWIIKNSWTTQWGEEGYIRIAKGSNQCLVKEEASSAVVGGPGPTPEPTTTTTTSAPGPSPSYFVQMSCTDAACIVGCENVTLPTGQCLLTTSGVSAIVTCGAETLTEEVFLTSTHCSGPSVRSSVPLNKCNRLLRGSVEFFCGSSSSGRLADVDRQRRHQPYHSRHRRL
#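 Detergent-containing arm of a paired screen for aggregation-based inhibition: 0.01% Triton X-100 present. Cruzain at 1.5 nM cleaved 2 uM Z-FR-AMC at pH 5.5 with 5 mM DTT; AMC fluorescence gain over 60 s measured activity.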
# Lassa entry inh = Lassa virus entry inhibition. Lassa virus pseudotype entry inhibition, cell reporter; control for the full effect not named in the record. Potency, µM (titrated, usually from 37.9 µM), without a hit: at the top dose activity change, negative = inhibition, most hits filed as inhibitors. actives 1.2% (n = 300,000). AID 540256; active means well fitted inhibition curve with a large enough effect; inconclusive means small, poorly fitted or top-dose-only effect, or effect the other way; inactive means flat fitted curve, though single readings scatter; tested in HEK293 cells; also: % is scaled to controls: 0 for no effect and ±100 for the full control effect; nearly all actives have a fitted effect of over 50% in size; luciferase read-out
# NS1 inh = influenza NS1 inhibition | S. cerevisiae slowed by influenza A NS1, growth recovery by OD600 | Potency, µM (doses to about 46.1 µM), for inactives: top-dose activity, positive = more growth | actives 0.4% (n = 270,000); active means well fitted rising curve with a large enough effect; inconclusive means small, poorly fitted or top-dose-only effect; inactive means no such curve, though single readings can be large or run the other way; also: nearly all actives have a fitted effect of over 50% in size
#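 A cell-based growth assay was used: compounds that relieve NS1-induced slow growth of budding yeast raise OD600. Assay medium was yeast nitrogen base with ammonium sulphate and -URA supplement, pH 6.0, with 2% galactose.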
# SARS PLP yeast = SARS-CoV PLP inhibition in yeast; S. cerevisiae expressing SARS-CoV PLpro, growth rescue; control for the full effect not named in the record; actives 0.19% (n = 330,000); Potency, µM (titrated, usually from 32.9 µM), inactives show at the top dose activity, positive = growth rescue; active means well fitted rising curve with a large enough effect; inconclusive means small, poorly fitted or top-dose-only effect; inactive means no such curve, though single readings can be large or run the other way; also: 0% is about no effect; nearly all actives have a fitted effect of over 55% in size; growth read by luminescence after 48 h
# RE007 growth inh = less growth of the S. pombe RE007 Vpr strain; actives 0.21% (n = 360,000); Potency, µM (top dose mostly 92.2 µM), without a hit: at the top dose activity change, negative = less growth; S. pombe RE007 Vpr strain, BacTiter-Glo ATP luminescence, 24 h; control for the full effect not named in the record; AID 651644; active = well fitted falling curve with a large enough effect; inconclusive = small, poorly fitted or top-dose-only effect; inactive = no such curve, though single readings can be large or run the other way;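 also: % is scaled to controls: 0 for no effect and ±100 for the full control effect; nearly all actives have a fitted effect of over 50% in size; the assay follows cell death caused by Vpr and the record does not say whether a fall means rescue or toxicity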
#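 Fission yeast RE007 carrying one integrated HIV-1 vpr copy, seeded at OD 0.01 in PMG+AL medium with 23 nL pinned compound. Grown 24 h at 30 degrees; viability read by BacTiter-Glo luminescence after 5 min.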
# StopGo reporter = lowers the luciferase signal of an FMDV 2A StopGo reporter; human cells with a luciferase reporter of 2A StopGo recoding; control for the full effect not named in the record; Potency, µM (series often up to 57.9 µM), without a hit: at the highest dose signal change, negative = less light; actives 1.2% (n = 410,000); active = well fitted falling curve with a large enough effect; inconclusive = small, poorly fitted or top-dose-only effect; inactive = no such curve, though single readings can be large or run the other way; tested in HEK293T cells; also: % is scaled to controls: 0 for no effect and ±100 for the full control effect; nearly all actives have a fitted effect of over 45% in size; luciferase light after 4 h
# Cruzain inh noDet = blocks cruzain activity in detergent-free assay. Potency, µM, inactives show max response, negative = inhibition, actives largely listed as inhibitors. purified cruzain, Z-FR-AMC fluorescence, no detergent. P25779. actives 2.3% (n = 200,000);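 also: plate controls were enzyme without inhibitor for no effect and buffer without enzyme for full effect; nearly all actives have a fitted effect of over 40% in size; top concentration of the series not given in the record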
#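 Detergent-free condition (0.00005% Triton X-100) in acetate buffer pH 5.5 with DTT. 1.5 nM enzyme and compound were pre-mixed 15 min, then 2 uM Z-FR-AMC substrate added; reaction progress from fluorescence change between first and third reads (60 s).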
# MARV entry inh = blocks Marburg virus binding to or entry into cells | Potency, µM (top dose mostly 37.8 µM), for the others: at the highest dose activity change, negative = inhibition, hits mostly inhibitors | Marburg virus pseudotyped entry inhibition, cell reporter; control for the full effect not named in the record; about a third of the inactives were read at about 46 µM | actives 1.8% (n = 300,000); active = well fitted inhibition curve with a large enough effect; inconclusive = small, poorly fitted or top-dose-only effect, or effect the other way; inactive = flat fitted curve, though single readings scatter; tested in HEK293 cells; about a fifth of its hits are not listed in these tables; also: % is scaled to controls: 0 for no effect and ±100 for the full control effect; luciferase read-out
# An asterisk follows results filed as active; ? = inconclusive; . = not tested or not shown; & = joins results of further samples; [ ] = remark or other dose. Unless noted, calls follow the shape of the dose curve; as a rule, active = well fitted curve in the direction sought with a large enough effect; inconclusive = small, poorly fitted or top-dose-only effect, or another doubt; inactive = no such curve, though single readings can be large; an effect the other way counts as inactive or inconclusive. Potency is read from the fitted curve at half-maximal effect.
compound	Cruzain inh noDet	RE007 growth inh	NS1 inh	StopGo reporter	Cruzain Triton	Lassa entry inh	SARS PLP yeast	MARV entry inh
O=C(CN(C1CC1)S(=O)(=O)c1ccc(S(=O)(=O)NC2CCCCC2)cc1)Nc1ccccc1	8%	-5%	17%	-30%	-1.8%	?	-1%	?
CCC1CCCCN1CCCNC(=O)c1ccc2c(c1)N(Cc1c(F)cccc1Cl)C(=O)CS2 (stereo not drawn)	.	4%	-7%	-10%	.	.	-4%	.
O=C(NC(=S)NCc1ccc(Cl)cc1Cl)c1ccco1	.	6%	.	7%	.	?	24%	?
Cc1cc(Cl)ccc1OC(C)C(=O)Nc1ccc([N+](=O)[O-])cn1 (stereo not drawn)	-8%	?	-18%	-1%	-9.0%	10%	-58%	?
CN(NC(=O)NN)c1ncc(C(F)(F)F)cc1Cl	-1%	-7%[3.69 µM]	18%	2%	0.9%	21%	3%	4%
COc1ccc(NC(=O)CCN2CCCCC2)cc1	-3%	-1%	-2%	.	5.7%	6%	3%	-1%
Cc1ccc(CNc2ncnc(N)c2[N+](=O)[O-])cc1	.	-14%	-3%	2%	.	.	-1%	17%[46.1 µM]
CCOc1ccccc1CNC(=O)c1cnn(-c2ccc(C)cc2)c1-n1cccc1	-5%	.	.	-13%	-8.3%	?	.	.
CC(C)CN(CC(C)C)S(=O)(=O)c1ccc(C(=O)Nc2sc3c(c2C(N)=O)CCN(C(C)C)C3)cc1	25%	.	.	0%	-15%	?	.	.
N#C/C(=C\c1ccccc1)C(=O)NCc1ccc(F)cc1	.	-5%	-19%	-7%	.	?	-1%	?
COc1cc(NC(=O)Nc2cccc(C(C)=O)c2)cc(OC)c1OC	0%	2%	-12%	-24%	-4.2%	-10%	15%	7%
O=C(COc1cccc(NC(=O)c2ccco2)c1)c1ccccc1	-5%	?	-76%	5%	-0.8%	-6%	-17%	-16%
COC(=O)c1c(C)oc(C)c1S(=O)(=O)N1CCCC1	.	1%	2%	-19%	.	.	0%	.
COc1cc(NC(=O)c2sc3nc4n(c(=O)c3c2C)CCCCC4)cc(OC)c1OC	7%	.	.	-18%	-2.5%	-5%[46.1 µM]	.	.
O=C(CSCc1ccc(Cl)cc1)NCCSCc1ccco1	.	-6%	.	-10%	.	-16%	-7%	-11%
O=[N+]([O-])c1ccccc1OCCN1CCCC1	.	2%	9%	4%	.	.	-12%	.
CCNC(=S)NCc1ccco1	-1%	9%	9%	-8%	2.1%	6%	-9%	3%
CCOC(=O)C1=C(CS(=O)(=O)c2ccccc2)NC(=O)NC1c1ccccc1OC (stereo not drawn)	.	-7%	1%	-10%	.	-25%[46.1 µM]	1%	?
CC(=O)N1CCN(C2c3cccc4cccc(c34)C2NS(=O)(=O)c2ccccc2)CC1 (stereo not drawn)	?	17%	-28%	-25%	-1.1%	-5%	-3%	-7%&-7%
CCCCn1c(N)c(N(CC(C)C)C(=O)C2CCN(S(=O)(=O)c3ccc(C)cc3)CC2)c(=O)[nH]c1=O	.	9%	.	-22%	.	-24%	6%	20%
O=C(CCNC(=O)c1ccccc1Cl)NCc1cccnc1	.	0%	.	0%	.	-13%[46.1 µM]	0%	20%
CCOC(=O)C(O)(c1ccc(N=Cc2ccccc2O)c(C)c1)C(F)(F)F (stereo not drawn)	24%	21%	4%	-20%	-1.8%	0%	4%	11%
O=C(O)CCCC(=O)Nc1ccc(Sc2ccc([N+](=O)[O-])cc2)cc1	-7%	4%	-4%	-12%	-2.4%	-10%	12%	-24%
C=CCn1c(Cc2ccccc2)n[nH]c1=S	.	10%	6%	-3%	.	5%	1%	5%[46.1 µM]
CC(=O)N1CCc2cc(S(=O)(=O)CCC(=O)Nc3ccccc3F)ccc21	.	5%	1%	22%	.	.	-2%	.
O=C(NCc1ccccn1)C1CC(c2ccccc2Cl)=NO1 (stereo not drawn)	.	-10%	3%	16%	.	-4%[46.1 µM]	-1%	2%[46.1 µM]
COc1ccc(NC(=O)c2ccc3ccccc3c2OC)cc1	.	-15%	.	39%[activator]	.	?	.	?
Cc1cccc(N2CCN(C(=O)NCc3ccc(F)cc3)CC2)c1C	.	15%	-28%	-21%	.	?	-5%	0%[46.1 µM]
Cc1cc(C)c(NC(=O)CSc2nc(-c3ccc(F)cc3)nc3c2Cc2c(CO)cnc(C)c2O3)c(C)c1	0%	.	.	-8%	0.7%	6%[46.1 µM]	.	.
NC(=O)c1ncn([C@@H]2O[C@H](CO)[C@@H](O)[C@H]2O)c1O	3%&-7%	-5%[18.4 µM]	-3%&21%	-14%	-1.4%&2.8%	3%&1%	13%	?
Cc1cccnc1CCNC(=O)CC1C(=O)NCCN1CC1CCCCC1 (stereo not drawn)	.	0%	7%	-6%	.	.	0%	.
O=C(Nc1ccc2nc3ccccc3nc2c1)c1ccc(Br)cc1	-5%	.	4%	-8%	-3.0%	23%	-11%	-5%
O=C(O)c1ccc(S(=O)(=O)N(CCc2ccccc2)Cc2ccc(Cl)cc2)cc1	.	-20%	13%	-23%	.	.	-1%	.
CCN(c1ccccc1)c1ccc2cc(S(=O)(=O)N3CCCC3)ccc2n1	12%	.	.	-20%	1.1%	-25%[46.1 µM]	.	.
O=C(CSC1=Nc2ccccc2N=C(c2ccc(F)cc2)C1)Nc1ccc(Cl)cc1	-7%	.	.	3%	-0.9%	?	.	.
COc1ccc(OC)c(NC(=O)c2sc3nc4c(cc3c2N)CCCCCC4)c1	-3%	.	.	-15%	-2.8%	11%[46.1 µM]	.	5%[46.1 µM]
Cc1cccc(NC(=O)C2CCCN(S(=O)(=O)c3ccc4c(c3)CCCC(=O)N4)C2)c1 (stereo not drawn)	-6%	.	.	?	-1.6%	17%[46.1 µM]	.	.
O=C(CN1C(=O)NC2(CCCC2)C1=O)Nc1cc(C(F)(F)F)ccc1N1CCOCC1	.	21%	.	-18%	.	6%	4%	?
Cc1ccc(CN2CCC(N3CCC(C(=O)NCC4CCCO4)CC3)CC2)o1 (stereo not drawn)	.	-6%	6%	-16%	.	21%	0%	-22%[46.1 µM]
CCCCn1c(N)c(N(CC)C(=O)C2=NN(c3ccccc3)C(=O)CC2)c(=O)[nH]c1=O	.	1%	.	-14%	.	3%	-8%	?
O=C(O)CC(NS(=O)(=O)c1ccc(Br)cc1)c1ccco1 (stereo not drawn)	-6%	17%	-2%	1%	-0.7%	-2%	0%	16%
Cc1ccccc1C(=O)Nc1sc2c(c1C(=O)N1CCCCC1)CCC(C(C)(C)C)C2 (stereo not drawn)	-13%	.	.	8%	-0.4%	-3%[46.1 µM]	.	-5%[46.1 µM]
Cc1c(CC(=O)O)c(=O)oc2c(C)c(OCc3ccccc3)ccc12	.	-17%	-1%	1%	.	.	-1%	.
CC(C)=NNC(=O)CN1C(=O)NC2NC(=O)NC21 (stereo not drawn)	4%	11%	-5%	9%	2.5%	-1%	8%	15%
Cc1ccc(C(=O)NC(=S)Nc2ccc(CN3CCCCC3)cc2)c(C)c1	.	-6%	-1%	-16%	.	18%[46.1 µM]	0%	?
Cc1cc(C(F)(F)F)n2nc(C)c(-c3ccc(Cl)cc3)c2n1	-13%	16%	16%	-16%	-2.4%	-6%	1%	4%
O=C(OCc1nnc(-c2ccc([N+](=O)[O-])cc2)o1)C1CC(=O)N(CCc2ccccc2)C1 (stereo not drawn)	.	3%	.	-3%	.	8%	12%	?
O=C(O)c1cccc(N/N=C/c2ccc(F)c(F)c2)c1	.	5%	.	-33%	.	4µM*	-4%	?
CCOC(=O)c1nn(-c2ccc(C)cc2)c(=O)c2c(N)scc12	-14%	-4%	7%	-28%	-12%	?	-13%	-20%
CCOC(=O)CCSCC(=O)Nc1cc(C)on1	-5%	13%	3%	24%	2.7%	-3%	-3%	-17%
O=C(CCc1[nH]c2ccccc2c1Sc1ccccc1)NCCO	?	0%	-8%	-20%	-4.5%	12%	0%	1%
O=c1c2ccccc2nc(SCc2ccccc2F)n1C1CCCC1	1%	.	1%	-9%	-3.0%	26%	-12%	-6%
COc1ccc(C2N=C(N)N=C(N)N2c2ccc(C)cc2)cc1 (stereo not drawn)	8%	-10%	7%	.	13%	4%	-2%	-19%
COc1ccc(OC)c(N(CC(=O)NCc2cccnc2)S(C)(=O)=O)c1	3%	5%	-5%	3%	0.8%	0%	1%	0%
CN(C)c1ccc(CNC(=O)C2COc3ccccc3C2)cc1 (stereo not drawn)	1%	.	.	66%[activator]	-3.0%	0%[46.1 µM]	.	.
COc1ccc(C(CNC(=O)c2sccc2C)N2CCOCC2)cc1 (stereo not drawn)	.	0%	.	24%	.	21%	-3%	15%
CCOC(=O)c1cc(-c2ccc(OC)cc2F)nc2c1c(C)nn2CCC#N	?	2%	-12%	?	-3.0%	-22%	-7%	?
CNC(=O)COC(=O)c1nc(-n2nc(C)cc2C)ccc1Cl	3%	16%	-9%	1%	2.0%	11%	2%	12%
CC(=O)N1CC2(c3ccccc3)CN(C(C)=O)CC(c3ccccc3)(C1)C2=O	.	6%	.	23%	.	-3%[46.1 µM]	-5%	-5%[46.1 µM]

# 2 neighbouring records from above:
compound	Cruzain inh noDet	RE007 growth inh	NS1 inh	StopGo reporter	Cruzain Triton	Lassa entry inh	SARS PLP yeast	MARV entry inh
COc1ccc(C2N=C(N)N=C(N)N2c2ccc(C)cc2)cc1 (stereo not drawn)	8%	-10%	7%	.	13%	4%	-2%	-19%
COc1ccc(OC)c(N(CC(=O)NCc2cccnc2)S(C)(=O)=O)c1	3%	5%	-5%	3%	0.8%	0%	1%	0%
